# Bfl-1 A1 inh: inhibitors of the anti-apoptotic protein A1, read as caspase activation. caspase activation, % (test concentration not listed). hit rate 0.066% among 330,000. MEF A1-2A-BIM cells, Caspase-Glo 3/7 luminescence, 3 h; percent of clofoctol response, vehicle zero;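 active = over half of replicate activation scores above 10%, or exactly half above 10 with the replicate mean above 10; inconclusive = replicate mean below 10 yet half the replicates above 10; inactive = over half of replicates below 10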;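 note: wells of about 30 µL received 50 nL stock; many hits fall short of the cut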
# UCH37 inh: inhibitors of human deubiquitinating enzyme UCH37; Q9Y5K5; purified proteasome/UCH37, Ub-AMC cleavage fluorescence; inhibition, % (no concentration beside the values); hit rate 0.33% among 330,000;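 active = mean of two replicates above 20%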;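 note: 0% = compound-free wells with enzyme and 100% = wells lacking proteasome; stock transfer was 100 nL into about 20 µL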
# Target sequence (Q9Y5K5 whole entry, looked up): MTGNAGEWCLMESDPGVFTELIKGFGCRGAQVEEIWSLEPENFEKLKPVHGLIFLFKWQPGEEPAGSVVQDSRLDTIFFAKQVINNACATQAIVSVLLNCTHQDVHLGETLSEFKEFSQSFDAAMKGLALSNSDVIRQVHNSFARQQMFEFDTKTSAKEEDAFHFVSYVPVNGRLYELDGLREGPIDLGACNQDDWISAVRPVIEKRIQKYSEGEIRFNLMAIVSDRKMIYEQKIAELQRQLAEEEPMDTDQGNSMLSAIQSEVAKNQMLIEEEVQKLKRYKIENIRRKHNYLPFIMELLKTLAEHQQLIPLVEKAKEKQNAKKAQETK
#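 Assay system: Proteasome-bound UCH37. Buffer or medium: pH 7.4 Tris-HCl (50 mM) with ovalbumin, ATP-MgCl2, DTT. Incubation: 30 min preincubation with enzyme, 25 min cleavage at room temperature. Measured by: fluorescence, ex 355 nm, em 460 nm. Read-out basis: percent inhibition. Control set: wells without proteasome as full block, compound-free enzyme plus substrate as uninhibited.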
# Ecoli growth: E. coli growth inhibition; Escherichia coli growth, OD600, 23 h; stronger effect = lower value; hit rate 0.21% among 330,000; OD600 absorbance (no concentration beside the values);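 active = OD600 absorbance below the run mean of sample wells minus 3.6 SD, in any replicate, cut at about 0.56 in these data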;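 note: stock transfer was 300 nL into about 60 µL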
# Beta apoptosis: beta cell apoptosis inhibition | INS-1E cytokine-induced death, ATP luminescence, 48 h; percent of positive-control rescue, neutral wells zero | protection from apoptosis, % (no concentration beside the values) | hit rate 0.8% among 300,000 | AID 435005;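 active = all replicates at 75% or more, or half of them and the mean; inconclusive = half reach 75% but not the mean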;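 note: 0% = cytokine-treated negative control wells and 100% = positive control rescue; higher means more ATP so stronger rescue from cytokine killing; wells of about 40 µL received 100 nL stock; the first replicate is given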
# AF4-AF9 inh: blocks AF4 peptide binding to human AF9; AlphaScreen, biotin-AF4 peptide binding to FLAG-AF9; inhibition, % at 10 µM; hit rate 0.47% among 350,000;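 active = every replicate reaching a set inhibition limit, whatever the replicate mean, cut at about 25% in these data; inconclusive = mean inhibition reaches that limit but some replicates miss it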;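 note: 0% = plate neutral control median and 100% = total signal loss; the record names both 10 and 1 µM as test concentration; the first replicate is given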
# Target sequence (P42568 whole entry, looked up): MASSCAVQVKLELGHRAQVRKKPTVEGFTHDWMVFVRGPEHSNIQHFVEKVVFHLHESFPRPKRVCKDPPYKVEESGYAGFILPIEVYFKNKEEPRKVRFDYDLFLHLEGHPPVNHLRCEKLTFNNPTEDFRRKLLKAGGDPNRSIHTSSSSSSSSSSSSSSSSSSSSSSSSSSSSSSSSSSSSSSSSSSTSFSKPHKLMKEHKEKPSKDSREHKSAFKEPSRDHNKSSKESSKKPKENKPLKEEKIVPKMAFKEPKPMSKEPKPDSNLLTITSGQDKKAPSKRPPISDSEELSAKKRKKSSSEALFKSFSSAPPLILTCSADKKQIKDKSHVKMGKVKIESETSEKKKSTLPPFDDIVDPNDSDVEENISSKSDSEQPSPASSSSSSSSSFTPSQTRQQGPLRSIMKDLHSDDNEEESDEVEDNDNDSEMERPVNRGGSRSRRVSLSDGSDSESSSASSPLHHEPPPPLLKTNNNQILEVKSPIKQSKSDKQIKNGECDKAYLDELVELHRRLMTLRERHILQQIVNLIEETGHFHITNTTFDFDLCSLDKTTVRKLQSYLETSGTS
# T cruzi repl: blocks replication of Trypanosoma cruzi | AID 1885 | T. cruzi beta-gal in NIH3T3, luminescence, 90 h | hit rate 1.4% among 300,000 | inhibition, % (concentration not given with the values);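 active = mean inhibition across valid replicates above about 55%, limit read from the data; inconclusive = mean below that limit but half or more replicates reach it; inactive = mean below it, under half of replicates reach it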;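 note: signal also drops with host cell toxicity which is not excluded here; 0% = plate median of DMSO wells and 100% = zero luminescence signal; higher percent means less beta-gal luminescence so fewer parasites; stock transfer was 50 nL into about 50 µL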
# FGF22 binding: FGF22 (human) thermal shift binding; Q9HCT0; recombinant FGF22 thermal shift, SYPRO orange fluorescence; percent of sucrose octasulfate shift, DMSO zero; calls only at 9.99 µM; hit rate 1.5% among 340,000; AID 651658;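 active = melting point raised past a set limit in the mean and every replicate; inconclusive = no clear call; three in four hits are not shown here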
# Target sequence (Q9HCT0 whole entry, looked up): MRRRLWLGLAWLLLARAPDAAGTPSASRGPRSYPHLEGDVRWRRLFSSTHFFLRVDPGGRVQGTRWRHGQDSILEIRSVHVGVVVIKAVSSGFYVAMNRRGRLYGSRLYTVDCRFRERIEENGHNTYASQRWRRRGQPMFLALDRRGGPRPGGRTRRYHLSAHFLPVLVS
# rRNA inh HTS: selective bacterial rRNA inhibition in E. coli | E. coli WT GFP vs humanized-ribosome RFP mutants, fluorescence, 24 h; stronger effect = lower value; DMSO median 0, no signal -100 | GFP signal change (wild-type ribosome), % (concentration not given with the values) | hit rate 1.6% among 350,000 | AID 720706;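 active = significant combined selectivity score with lowered wild-type GFP, culture density cut under 30%, mutant RFP and density less affected; inactive = any of these conditions unmet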; note: one replicate is shown; some compounds called inactive have numbers as strong as hits
# rRNA inh HTS OD600: also measured in rRNA inh HTS; calls as there; OD600 change, %; measured here: OD600 growth;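 optical density of the mix in the first replicate; 0 = DMSO median and -100 = no signal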
# rRNA inh HTS RFP: second read-out of rRNA inh HTS, no call of its own (marks repeat the call); RFP signal change, %; measured here: RFP humanized mutant strains;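 first replicate; 0 = DMSO median and -100 = no signal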
# * = called active by the depositor; i = inactive; ? = inconclusive; . = not tested or not shown. An excerpt (hit frequency here may not be typical).
# Value order: Bfl-1 A1 inh	UCH37 inh	Ecoli growth	Beta apoptosis	AF4-AF9 inh	T cruzi repl	FGF22 binding	rRNA inh HTS	rRNA inh HTS OD600	rRNA inh HTS RFP
1	CCCC1NC(=S)N(C2CCCCC2)C1=O (centres undefined)
  0.1	2.0	0.67	-6	-9.4	-11	i	9	5	2.9
2	CCCNC(=O)c1nnsc1S(=O)c1ccc(Cl)cc1 (centres undefined)
  .	4.8	0.64	.	-0.1	67*	i	-39	-36	-7.9
3	COc1cccc(C2=CC(c3cccc(OC)c3OC(F)F)n3nnnc3N2)c1 (centres undefined)
  -1.9	-4.3	0.73	5	.	-14	.	.	.	.
4	CCOc1ccc(NC(=O)C[n+]2ccccc2)cc1
  0.7	3.6	0.66	2	-5.6	-5	i	-13	-25	-5.6
5	CC(=O)Nc1ccc(NC(=O)C2CCN(S(=O)(=O)c3ccc4c(c3)OCCO4)CC2)cc1
  1.6	2.1	0.71	-9	-0.7	.	i	15	2	2.0
6	O=C(COC(=O)CCc1nc2ccccc2s1)NCc1ccco1
  0.5	0.2	0.65	5	-3.0	9	i	15	10	1.2
7	COc1ccc(/C=C/C(=O)NC(=S)NNC(=O)c2cccs2)cc1
  -1.0	.	.	15	-1.8	11	i	-12	-2	-0.1
8	C=CCn1cnc2c(nnn2-c2ccc(C)c(Cl)c2)c1=O
  0.1	-9.6	0.69	-1	-0.9	6	i	12	-3	0.1
9	O=C(Cn1cccc1C(=O)c1ccccc1)NCc1ccccc1Cl
  0.0	-0.3	0.7	-5	-6.9	-3	i	7	10	1.6
10	Cc1cc(C)c2[nH]c(O)c(N=Nc3ccc(C(=O)O)cc3)c2c1
  -1.2	6.2	0.68	-5	2.9	-15	i	2	10	2.5
11	Cc1cc([N+](=O)[O-])ccc1NC(=O)c1cncc(Br)c1
  -0.2	6.0	0.65	-5	.	-4	.	.	.	.
12	C=CCc1ccc(OCCCCN2CCC(C)CC2)c(OC)c1
  0.0	3.4	0.68	-1	.	9	.	.	.	.
13	Cc1nc2sc(C(c3ccc(C(C)C)cc3)N3CCN(CCO)CC3)c(O)n2n1 (centres undefined)
  -0.5	1.8	0.79	0	17	-10	i	5	-5	4.4
14	C=C1CCN([C@H](C(=O)NCc2cc(OC)c(OC)c(OC)c2)C(C)C)S(=O)(=O)c2ccccc21
  0.2	1.4	.	-2	-1.3	-7	i	2	-1	-3.3
15	CN(c1ccccc1)S(=O)(=O)c1ccc(Cl)c(C(=O)OCC(=O)NCc2ccco2)c1
  -0.5	-0.6	0.73	1	2.2	-11	i	-13	-14	2.9
16	C=CCOc1c(Cl)cc(CNc2ccc3[nH]c(=O)[nH]c3c2)cc1OC
  0.5	0.8	0.68	0	.	-34	.	.	.	.
17	O=C(COc1ccc(F)c(Cl)c1)N1CCCCCCC1
  -0.1	6.1	0.7	-4	4.6	6	i	-20	-24	-3.0
18	COc1ccccc1C(O)P(=O)(OC(C)C)c1ccc(N(C)C)cc1 (centres undefined)
  0.5	-0.2	0.71	-10	.	-17	.	.	.	.
19	COc1ccc(OC)c(NC(=O)Cn2cnc3c(cnn3-c3ccccc3)c2=O)c1
  0.3	4.1	0.72	-4	6.7	-15	i	3	13	2.4
20	CSc1nnc(-c2ccc(S(=O)(=O)N3CCOCC3)cc2)n1C
  0.1	0.7	0.7	1	-4.4	-6	i	4	6	-0.6
21	COc1ccc(CNC(=S)N2CCN(Cc3ccccc3)CC2)cc1
  -0.5	3.4	0.65	-5	4.4	3	i	-3	2	-1.7
22	COc1ccccc1NC(=O)CNC(=O)Cn1c(C)cc2ccccc2c1=O
  -1.1	-9.9	0.63	-5	-1.8	-3	i	11	15	-0.9
23	Cc1ccc(-n2nc(CN3CCOCC3)c(-c3ccccc3)c2N)c(C)c1
  1.0	-1.4	0.69	-2	.	-6	.	.	.	.
24	O=C(CN1C(=O)NC2(CCCCCC2)C1=O)N1CCN(S(=O)(=O)c2ccc(Cl)cc2)CC1
  -0.4	2.6	0.73	-1	.	10	.	.	.	.
25	COC/C=C/C1=CC2=CC(=O)C(C)(OC(=O)c3cnc4ccccc4n3)C(=O)C2=CN1Cc1ccc(OC)cc1 (centres undefined)
  1.0	4.7	.	0	2.5	-23	i	9	6	5.4
26	COc1ccc(OC)c(/C=N/NC(=O)Cc2nc3ccccc3[nH]2)c1
  0.0	.	.	-6	-0.9	-12	i	.	.	.
27	Nn1c(SCC(=O)NC2CCCCC2)nnc1C1CC1
  0.0	1.7	0.74	1	.	-11	.	.	.	.
28	O=C1SC(c2ccccc2)=C/C1=C\N1CCCCC1
  -0.1	-1.1	0.69	3	30*	3	i	-9	-2	8.4
29	COc1ccc(NC(=O)Nc2cc(NC(=O)Nc3ccc(OC)cc3)c(C)nc2C)cc1
  -0.1	2.5	0.73	-6	-8.5	14	i	.	.	.
30	COc1ccc2c(c1)CCCN2C(N)=Nc1ccc(Cl)cc1
  0.0	.	.	4	-15	1	i	12	0	-6.1

# Quoted from the listing.
# For Bfl-1 A1 inh, COc1ccc(NC(=O)Nc2cc(NC(=O)Nc3ccc(OC)cc3)c(C)nc2C)cc1 reads -0.1
# For UCH37 inh, O=C1SC(c2ccccc2)=C/C1=C\N1CCCCC1 reads -1.1

# Next section
# Value order: Bfl-1 A1 inh	UCH37 inh	Ecoli growth	Beta apoptosis	AF4-AF9 inh	T cruzi repl	FGF22 binding	rRNA inh HTS	rRNA inh HTS OD600	rRNA inh HTS RFP
31	Cc1ccc(S(=O)(=O)N2CC(O)CC2C(=O)Nc2ccc3c(c2)CCC3)cc1 (centres undefined)
  0.4	-1.0	0.69	5	.	-14	.	.	.	.
32	O=C(NCc1ccco1)C(=O)NCC1OCCN1C(=O)c1ccc(Cl)cc1 (centres undefined)
  0.0	1.8	0.69	1	-0.4	-6	i	4	-1	-3.1
33	O=C(O)c1nn(-c2ccccc2)c(-c2ccccc2)c1C(=O)c1ccccc1
  0.2	1.6	0.71	-7	.	-21	.	.	.	.
34	Cc1cc(C)cc(N(CCC(=O)O)S(=O)(=O)c2ccc3ccccc3c2)c1
  0.1	5.0	0.71	-5	-7.1	-7	i	-11	-5	5.5
35	C=CCOC(=O)CCCC(=O)NC1CCCCC1
  0.2	-1.9	0.76	.	.	-11	.	.	.	.
36	CCOC(=O)C(CCC(=O)O)(CCC(C)C)c1csc(N)n1 (centres undefined)
  0.8	6.7	0.71	.	.	-14	.	.	.	.
37	Cc1cc(Br)ccc1SCC(=O)OCC(=O)NC1CC1
  -0.9	2.7	0.68	-6	0.5	-22	i	-13	-15	-3.6
38	S=C(Nc1ccc(Cl)cc1)NN1CCOCC1
  -1.3	3.9	0.74	-2	2.4	-9	i	15	10	-0.1
39	OC(CN1CCN(Cc2ccccc2)CC1)c1ccc(Br)cc1 (centres undefined)
  -1.5	2.8	0.65	4	1.7	57*	i	17	17	3.7
40	CCOC(=O)c1cc(NC(=O)CC(C)(C)CC(=O)O)ccc1N1CCCCC1
  0.0	7.1	0.69	.	-3.8	-19	i	7	7	-2.1
41	N=P(N1CCOCC1)(N1CCOCC1)C12CC3CC(CC(C3)C1)C2
  -0.7	-2.7	0.76	2	.	7	.	.	.	.
42	Cn1c(CC(=O)Nc2ccc(Cl)c(Cl)c2)nnc1SCC(=O)NCc1ccccc1
  0.8	.	.	-3	0.1	11	i	4	10	-3.0
43	CCOc1ccc(N(CC(=O)Nc2ccc(C)cc2)S(C)(=O)=O)cc1
  0.8	8.8	0.64	-4	1.7	7	i	8	12	0.9
44	CN1C(=O)[C@@H]2[C@@H]3C[C@@H]([C@H]4ON=C(c5ccccc5OCC#N)[C@@H]34)[C@@H]2C1=O
  0.3	0.7	0.7	-6	3.1	.	i	4	10	0.2
45	O=C(NNC(=O)c1nn(-c2ccc(F)cc2)ccc1=O)c1ccccc1Cl
  -0.8	5.9	0.64	0	8.6	-3	i	9	4	3.5
46	O=C(OCC(=O)N1CCN(c2ccccc2)CC1)c1cccc(Cl)c1
  -0.7	0.7	0.69	-3	.	-10	.	.	.	.
47	CN1CCC(CC(C(=O)N2CCCC2)(c2ccccc2)c2ccccc2)C1 (centres undefined)
  .	5.5	0.71	.	4.1	.	i	14	8	0.7
48	Cc1csc(=Nc2cccnc2)n1CC1CCCCC1
  -0.3	3.7	0.69	0	-21	-5	i	11	9	3.8
49	CSc1ccccc1N1CCN(C(=O)Nc2ccc3c(c2)NC(=O)CO3)CC1
  -0.7	4.4	0.74	8	.	-10	.	.	.	.
50	O=C1CSC(c2ccc(F)c(F)c2)N1c1ccccc1F (centres undefined)
  0.6	3.0	0.68	-5	3.2	-12	i	10	0	3.5
51	Cn1cc(S(=O)(=O)N2CCN(Cc3ccccc3)CC2)c(=O)n(C)c1=O
  0.9	-1.1	0.7	-3	-0.2	4	i	0	6	1.1
52	COc1cc(/C=N/NC(=O)COc2cc(C)cc(C)c2)ccc1OS(=O)(=O)c1ccc(C)cc1
  -0.3	.	.	7	-1.5	2	i	3	15	18
53	Cc1cc(C)c(NC(=O)CN2CCC(NC(=O)NC3CCCCC3)CC2)c(C)c1
  -0.4	1.3	0.71	-4	.	0	.	.	.	.
54	OC[C@H]1O[C@H](OC[C@H]2OC(O)[C@H](O)[C@@H](O)[C@@H]2O)[C@H](O)[C@@H](O)[C@@H]1O (some centres undefined)
  0.7	0.2	.	2	0.5	.	i	.	.	.
55	CNC(=S)NNC(=O)c1ccc2c(c1)OCO2
  -0.1	2.5	0.72	-4	-1.6	-11	i	21	12	2.4
56	CCOC(=O)c1nn(-c2ccc(C)cc2)cc1C(=O)c1ccccc1
  -4.9	-1.8	0.71	.	.	17	.	.	.	.
57	CN1C(c2ccccc2)=NO[C@]1(C)c1ccccc1
  0.3	-2.2	0.72	-1	3.3	-1	i	7	2	0.1
58	Cc1cc(NC(=O)CCC(=O)N(CC(=O)NC2CCCC2)c2ccccc2)no1
  1.4	3.1	0.7	2	.	-11	.	.	.	.
59	O=[N+]([O-])c1ccc(NCCCO)c(C(F)(F)F)c1
  -0.6	6.1	0.7	1	3.7	-20	i	9	8	4.3
60	CN(CC(=O)Nc1ccccc1Br)C(=O)c1ccc2c(=O)n3c(nc2c1)CCC3
  -0.5	-0.9	0.67	-5	-0.6	.	i	20	8	2.8
61	Cc1cc(C)cc(NC(=O)CSCc2nc3c(nnn3Cc3ccc(F)cc3)c(=O)[nH]2)c1
  0.0	0.4	0.74	-4	.	-5	.	0	4	0.9
62	COc1ccc(Cc2nnc(NC(=O)C3CC(=O)N(c4ccc(OC)cc4)C3)s2)cc1 (centres undefined)
  0.0	-0.6	0.72	-9	3.1	-19	i	2	4	-4.1
63	CCN(CC)S(=O)(=O)c1ccc(N2CCOCC2)c(NC(=O)C(=O)c2c(-c3ccccc3)cc3ccccn23)c1
  0.3	9.9	0.73	5	.	?	.	.	.	.
